# Screening data from PubChem.
# Rango release inh: qHTS Assay for Inhibitors of RanGTP induced Rango (Ran-regulated importin-beta cargo) - Importin beta complex dissociation | Snurportin-1 (Homo sapiens) + GTP-binding nuclear protein Ran (Homo sapiens) + Importin … | Biochemical FRET Rango-importin beta, RanGTP-induced dissociation | Potency, µM (top dose mostly 46.1 µM), without a hit: at the highest dose activity change, negative = inhibition | 340,000 compounds, 0.071% hits | AID 540253, 2011; active means falling FRET ratio curve, often poorly fitted, with flat reads before Ran was added; inconclusive means other falling curves, or compound fluorescence or quenching; inactive means flat or rising ratio curve;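 further: potency means the concentration at half of the fitted maximal effect; % of control where 0% means no effect; nearly all actives have a fitted effect of over 45% in size; -100% = wells without RanGTP and RCC1; the record marks most hits as doubtful in a second field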
#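 Quantitative HTS using a FRET biosensor: 0.1 uM Rango, 0.25 uM importin beta, 0.6 uM Ran, 2 mM GTP, 0.2 uM RCC1 final, PBS with DTT, Tween-20 and BSA. Post-read taken 45 min after Ran addition.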
# Rango complex inh: qHTS Assay for Inhibitors of Rango (Ran-regulated importin-beta cargo) - Importin beta complex formation; Rango CFP/YFP FRET sensor + importin beta, 45 min; Potency, µM (doses to about 92.2 µM), for the others: top-dose inhibition of complex formation; 340,000 compounds, 0.031% hits; active = rising FRET ratio curve, often small or poorly fitted; inconclusive = mostly compound fluorescence or quenching in the first reads; inactive = flat curves in all reads;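 further: potency means the concentration at half of the fitted maximal effect; 0% = DMSO wells and 100% = buffer wells lacking importin beta; nearly all actives have a fitted effect of over 15% in size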
# Target sequence (Q14974 whole entry, looked up): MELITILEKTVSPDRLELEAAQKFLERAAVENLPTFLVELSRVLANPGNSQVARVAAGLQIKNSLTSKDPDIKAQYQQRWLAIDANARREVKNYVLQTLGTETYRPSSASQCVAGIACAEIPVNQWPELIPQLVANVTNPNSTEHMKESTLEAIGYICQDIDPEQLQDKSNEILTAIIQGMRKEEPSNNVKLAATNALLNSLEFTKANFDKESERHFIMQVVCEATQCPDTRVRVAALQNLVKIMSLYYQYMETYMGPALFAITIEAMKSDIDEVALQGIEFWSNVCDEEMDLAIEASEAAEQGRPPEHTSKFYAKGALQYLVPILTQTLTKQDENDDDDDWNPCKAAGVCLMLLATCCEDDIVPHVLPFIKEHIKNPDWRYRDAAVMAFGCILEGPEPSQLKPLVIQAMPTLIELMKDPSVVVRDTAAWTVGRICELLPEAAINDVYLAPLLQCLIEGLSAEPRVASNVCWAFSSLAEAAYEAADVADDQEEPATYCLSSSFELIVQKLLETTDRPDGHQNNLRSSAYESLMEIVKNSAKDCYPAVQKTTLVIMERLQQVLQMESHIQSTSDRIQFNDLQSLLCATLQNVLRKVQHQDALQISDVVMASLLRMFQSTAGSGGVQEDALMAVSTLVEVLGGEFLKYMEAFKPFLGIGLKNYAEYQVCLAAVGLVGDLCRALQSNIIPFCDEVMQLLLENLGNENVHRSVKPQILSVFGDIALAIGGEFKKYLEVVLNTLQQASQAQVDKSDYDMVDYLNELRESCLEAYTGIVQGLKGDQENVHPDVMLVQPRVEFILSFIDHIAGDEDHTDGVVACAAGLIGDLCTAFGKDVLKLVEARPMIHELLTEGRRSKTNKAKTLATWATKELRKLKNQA
#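 FRET biosensor Rango (snurportin 1 IBB between N-terminal EYFP and C-terminal Cerulean), 50 nM in PBS/1 mM DTT/0.02% Tween-20/0.1% BSA, preincubated 5 min RT with compound; 0.125 microM importin beta added, 45 min RT, CFP/YFP FRET ratio read.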
# miR-21 reporter: qHTS Assay for Modulators of miRNAs and/orActivators of miR-21 | HeLa miR-21 FLuc reporter, luciferase, 48 h | Potency, µM (highest dose often 38.3 µM), without a hit: at the top dose reporter change, positive = more light | 340,000 tested, under 10 active; active = well fitted rising curve with a large enough effect; inconclusive = small, poorly fitted or top-dose-only effect; inactive = no such curve, though single readings can be large or run the other way;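 further: % of control where 0% means no effect; miR-21 action dims this reporter so a rising signal means less miR-21 action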
#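 HeLa miR-21-FLuc reporter line, endogenous miR-21; 2000 cells/well in DMEM/10% FBS; compound titration up to ~40uM final, 48 h, 37 degree Celsius; luciferase detection reagent, 15 min lysis, CCD luminescence.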
# GLA inh pH 4.5: qHTS Assay for Inhibitors of Human alpha-Galactosidase at pH 4.5. Alpha-galactosidase A (Homo sapiens), P06280. purified enzyme, 4-MU-alpha-Gal fluorescence, pH 4.5. activity change, negative = inhibition, % at 105 µM. 230,000 tested, under 10 active. AID 1467, 2008; inconclusive = small, poorly fitted or top-dose-only inhibition, or a rising curve; inactive = flat fitted curve, though single readings scatter; no compound was filed as active;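 further: 0% = full activity with enzyme and -100% = basal without enzyme; dose as in the result columns while the protocol names 77 µM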
# Numbers without * were called inactive; ? = inconclusive; . = no result given.
Rango release inh,Rango complex inh,GLA inh pH 4.5,miR-21 reporter,Compound
-5.5%,-0.7%,.,-4.6%,Cc1nn(CC(=O)NCC(C)c2ccccc2)c(=O)c2cccn12 (configuration not stated)
-3.8%,1.2%,-5.3,-7.4%,NCCCSC1=NCCCN1
-0.1%,0.3%,.,.,N#CCCN(C(=O)COC(=O)CCc1c[nH]c2ccccc12)c1ccc(F)cc1
6.8%,2.6%,.,.,CCOC(=O)c1c(C)[nH]c(C)c1C(=O)COC(=O)/C=C/c1ccc(OC)cc1
3.0%,-2.0%,.,.,Cc1ccc2c(c1)/C(=N/OS(=O)(=O)c1ccccc1)CCS2
3.4%,1.4%,.,.,COc1ccc(Cl)cc1NC(=O)CN(C)C(=O)Cn1cnc2c1c(=O)n(C)c(=O)n2C
13.0%,-3.9%,-9.6,-47.5%,C=CCn1c(N)c(C(=O)Nc2ccc(C)cc2)sc1=S
-0.2%,-1.8%,5.5,1.5%,C#CCOCCOCCOCCNc1nc(N2CCN(C(=O)[C@H](CCC(=O)O)n3cc(C(N)CC(C)C)nn3)CC2)nc(N2CCN(C(=O)[C@H](Cc3cc4ccccc4[nH]3)n3cc(C(N)[C@H](C)CC)nn3)CC2)n1 (some centres not stated)
1.8%,0.6%,1.0,-6.8%,O=C(Nc1ccccc1)Oc1ccc[nH]c1=O
-11.1%,-0.5%,-3.5,5.3%,Cc1ccccc1OCC(O)Cn1c2ccccc2c2ccccc21 (configuration not stated)
4.4%,-0.7%,8.2,-1.3%,CCN(C(=O)CSc1nc2ccccc2n1CC)C1CCS(=O)(=O)C1 (configuration not stated)
-13.2%,-3.2%,1.2,0.4%,COC(=O)c1ccc(Cl)cc1N(Cc1c(F)cccc1Cl)S(C)(=O)=O
-15.5%,?,-8.8,-30.0%,Cc1ccc2nc(C(F)C(F)(F)F)[nH]c2c1 (configuration not stated)
-1.8%,-1.6%,0.6,-0.8%,COc1ccc(CCC(=O)N2CC(C)OC(C)C2)cc1 (configuration not stated)
13.5%,-0.4%,8.5,-8.2%,COCCN(C(=O)Nc1ccccc1)c1ccccc1
1.2%,-0.2%,.,-11.6%,O=C(Nc1ccc(-n2cc(Cl)cn2)cc1)c1ccncc1
17.0%,-3.7%,.,.,COc1ccc(N2CCN(C(CNC(=O)c3cccs3)c3ccco3)CC2)cc1 (configuration not stated)
10.6%,?,4.2,2.9%,O=C1NC[C@H](Cc2ccccc2)N(CCc2cccc(F)c2)C1=O
-3.3%,0.8%,.,.,CC(C)(C)OC(=O)N1CCC(C(=O)Nc2ccc(C(=O)N3CCOCC3)cc2)CC1
-0.3%,-0.1%,.,-1.2%,CCOc1ccc(S(=O)(=O)Nc2ccc(C(=O)NCC(c3ccco3)N(C)C)cc2)cc1 (configuration not stated)
-2.9%,-0.6%,4.9,18.7%,CCNc1nc(CN2CCCCC2)nc2scc(-c3ccccc3)c12
9.6%,-0.6%,16.9,0.1%,Cc1ccc(NC(=O)C(NS(=O)(=O)c2cccc3nsnc23)C(C)C)nc1 (configuration not stated)
22.2%,-0.9%,.,.,CC[C@H](C)Cc1cn([C@@H](CCCN=C(NC(=O)OC(C)(C)C)NC(=O)OC(C)(C)C)C(=O)NCCCCCCCCCCC(=O)N2CCN(C(=O)OC(C)(C)C)CC2)nn1
2.2%,-0.7%,3.3,24.2%,COCCN=C1NN=C(c2ccc(NC(C)=O)cc2)CS1
-0.2%,4.3%,.,-2.3%,COc1ccc(C(=O)N/C(=C/c2ccccc2F)C(=O)NCCN2CCOCC2)cc1OC
9.5%,-1.6%,.,.,COc1ccc2nc(SCC(=O)c3c(N)n(C4CC4)c(=O)[nH]c3=O)[nH]c2c1
17.8%,2.2%,-7.9,-49.7%,O=C(NC(=S)Nc1ccc2c(c1)OCO2)c1ccc(Cl)cc1
.,.,4.1,?,CCOC(=O)C1=C(Cc2ccc(C)cc2)C(=O)c2ccccc2C1=O
-6.3%,-0.7%,.,.,S=C(c1ccco1)N1CCOCC1
2.8%,5.5%,2.1,0.1%,O=C(c1ccc(CN2CCOCC2)cc1)N1CCC(Cc2ccccc2)CC1
6.2%,-2.0%,.,.,OC(CN(Cc1ccccc1)Cc1ccccc1)c1ccccc1 (configuration not stated)
-5.5%,0.5%,.,2.6%,COCc1nnc(NS(=O)(=O)c2ccc(F)cc2)s1
6.2%,4.3%,-18.8,-19.9%,COc1ccc(N/N=C(\C#N)C(=O)NCCc2ccc(OC)c(OC)c2)cc1
18.3%,-2.2%,.,-0.5%,CC1CCN(C(=O)c2ccc(NC(=O)c3cccs3)cc2)CC1
-9.2%,3.0%,.,.,COc1ccc(-c2nn(-c3ccccc3)cc2C(=O)N2CCN(S(=O)(=O)c3ccccc3[N+](=O)[O-])CC2)cc1
4.5%,-1.1%,-22.3,-9.0%,CCc1ccc2c(COC(=O)CNS(=O)(=O)c3ccc(NC(C)=O)cc3)cc(=O)oc2c1
-2.1%,-1.6%,-1.3,7.6%,CCCn1c(SCC(=O)Nc2nnc(C)s2)nnc1-c1ccoc1C
-6.0%,2.9%,-0.7,-3.3%,O=C1CNC(=O)N1Cc1ccc(Br)cc1
-5.3%,-1.0%,1.0,-1.1%,COc1ccc(Br)cc1CNC(C)c1ccccc1 (configuration not stated)
17.8%,-0.6%,.,.,O=C(CNC(=O)Cc1ccccc1)NCc1cccs1
12.0%,2.4%,-1.6,-1.9%,Cc1cc(NC(=O)CCCC(=O)O)nc(C)n1
20.2%,-0.1%,.,.,CN1CCN(c2oc(-c3ccccc3)nc2S(=O)(=O)c2ccccc2)CC1
-1.5%,0.2%,.,.,Cc1ccc(NC(=O)CSCC(=O)N2CCN(C(=O)c3ccco3)CC2)cc1
-7.2%,1.5%,.,.,Cc1nc(Cc2nnc(SC(C)C(=O)Nc3cccc(C#N)c3)o2)cs1 (configuration not stated)
4.5%,0.4%,.,-5.0%,O=C(c1ccccc1)N1CCN(C(=O)c2ccccc2)CC1
3.9%,-0.9%,1.3,-6.4%,CN(Cc1ccccc1)C(=O)c1ccco1
?,?,.,.,C=CCOc1ccc(C=NNc2ccc(S(=O)(=O)Nc3ccccc3C(=O)O)cc2[N+](=O)[O-])cc1OC
-25.7%,1.4%,.,.,CN1C(C(=O)NCC2CC2)CC2Cn3c(nc4ccccc43)C21 (configuration not stated)
-3.0%,-0.3%,.,.,O=C(COC(=O)c1ccc[n+]([O-])c1)Nc1ccc([N+](=O)[O-])cc1C(F)(F)F
-8.9%,0.8%,-9.9,-5.0%,COc1cc(OC)cc(C(=O)N[C@H](C(=O)Nc2ccc3c(c2)OCO3)C(C)C)c1

# A second format for some results above.
O=C(CNC(=O)Cc1ccccc1)NCc1cccs1
  Rango release inh: 17.8%; Rango complex inh: -0.6%; GLA inh pH 4.5: .; miR-21 reporter: .
Cc1cc(NC(=O)CCCC(=O)O)nc(C)n1
  Rango release inh: 12.0%; Rango complex inh: 2.4%; GLA inh pH 4.5: -1.6; miR-21 reporter: -1.9%
CN1CCN(c2oc(-c3ccccc3)nc2S(=O)(=O)c2ccccc2)CC1
  Rango release inh: 20.2%; Rango complex inh: -0.1%; GLA inh pH 4.5: .; miR-21 reporter: .
Cc1ccc(NC(=O)CSCC(=O)N2CCN(C(=O)c3ccco3)CC2)cc1
  Rango release inh: -1.5%; Rango complex inh: 0.2%; GLA inh pH 4.5: .; miR-21 reporter: .

# Next compounds:
Rango release inh,Rango complex inh,GLA inh pH 4.5,miR-21 reporter,Compound
-4.6%,-1.1%,0.9,-9.3%,S=c1nc(C2CC2)[nH]c2ccccc12
0.1%,-2.4%,.,-8.7%,CCOc1ccc(C(=O)Cc2cc3cccc(OC)c3oc2=O)cc1
-0.6%,-5.9%,3.1,-5.0%,CC(C)NC(=O)NC(=O)COc1cccc2c1OC(C)(C)C2
-13.1%,-3.4%,3.6,-2.5%,COC(=O)C1=C(C)NC(=O)/C1=C\c1cc(C)n(-c2ccc(F)cc2)c1C
1.6%,-3.7%,6.7,-6.7%,Cc1ccc(S(=O)(=O)N2CCC(C(=O)Nc3nnc(-c4ccc(F)cc4)s3)CC2)cc1
5.8%,-3.1%,-12.1,-2.6%,CCCC(=O)NCCc1nc2ccccc2n1CCC
0.5%,1.8%,-2.2,-1.0%,Cc1nn(-c2ccccc2)c(N2CCCCC2)c1/C=N/O
2.0%,0.4%,-3.4,-9.6%,O=C(N/N=C/c1cc([N+](=O)[O-])cc([N+](=O)[O-])c1O)/C(=C\c1cccs1)NC(=O)c1ccccc1
-11.2%,-2.5%,0.1,-2.4%,Cc1ccc2[nH]c(=O)c(CN(Cc3nnnn3Cc3ccccc3)C3CCCC3)cc2c1
-0.2%,1.0%,.,-0.8%,CCN(CC(=O)NCc1ccc(Cl)cc1)C(=O)/C=C/c1ccc(C#N)cc1
6.9%,0.4%,4.3,-1.8%,N#CCCn1cc(/C=N/NC(=O)c2ccncc2)c(-c2ccccc2)n1
-5.0%,4.0%,-6.7,-2.2%,NC(=O)CSc1oc(-c2cccs2)nc1S(=O)(=O)c1ccccc1
4.0%,0.4%,-6.2,29.2%,O=C(NNC(=O)c1ccc(Oc2cc(Cl)cc(Cl)c2)o1)c1ccccc1
5.4%,-0.3%,-2.6,-5.3%,c1cn(CCCNC2=NCCCCC2)cn1
-1.6%,0.1%,4.5,-49.2%,O=C(CCc1nnc(CCCc2ccccc2)o1)NCCc1ccco1
3.0%,1.6%,1.4,-0.5%,O=C(CCCn1c(SCC(=O)NCC2CCCO2)nc2ccccc2c1=O)NCc1ccccc1 (configuration not stated)
14.0%,1.6%,.,.,CCc1cc(C(=O)NCC(c2ccc(OC)cc2)N2CCOCC2)sc1C (configuration not stated)
0.8%,-2.1%,5.2,2.5%,CCOC(=O)C(CO)(NC(C)=O)C(=O)OCC
2.1%,2.2%,4.4,3.3%,Cc1ccc(S(=O)(=O)N2CCC(n3nnc4cc(C)ccc43)CC2)cc1
19.6%,-4.1%,.,.,CSCCCc1cn([C@@H](CO)C(=O)NCCCCCCCCCCC(=O)N2CCNCC2)nn1
-5.5%,-0.4%,.,.,CC(OC(=O)C1CC(=O)N(Cc2ccccc2)C1)C(=O)Nc1ccc(F)cc1Cl (configuration not stated)
-1.5%,1.7%,-21.6,-50.3%,COCCCNC(=O)c1ccc(-c2csc(C)n2)cc1
-3.5%,-1.2%,6.8,-0.9%,COC(=O)c1ccc(OCCN2CCCCCC2)cc1
-5.6%,-0.6%,.,.,CN(C(=O)COC(=O)c1ccc(Br)c([N+](=O)[O-])c1)c1c(N)n(Cc2ccccc2)c(=O)[nH]c1=O
0.2%,-0.6%,-0.8,-19.4%,CC(NC(=O)Nc1ccc(Br)cc1)C(C)(C)C (configuration not stated)
7.8%,0.8%,.,0.4%,COc1ccc(NC(=O)CSc2nnnn2C2CCCCC2)c(OC)c1
-4.1%,-1.7%,6.2,-17.5%,O=C(Cn1cc(C(=O)C(F)(F)F)c2ccccc21)NCc1ccco1
-0.8%,-7.4%,-6.9,8.4%,NS(=O)(=O)c1ccc(N/N=C/c2ccc[nH]2)c([N+](=O)[O-])c1
-3.4%,3.7%,.,-3.5%,OCCN(CCCn1c(-c2ccncc2)nc2ccccc21)c1nc(CN2CCCCC2)cs1
2.3%,-2.7%,4.7,0.2%,COc1ccc(C)cc1S(=O)(=O)N(CC(=O)Nc1cccc([N+](=O)[O-])c1)c1ccc(C)cc1
-8.5%,-2.2%,-5.9,-3.2%,Cc1c(Cl)c(C(F)(F)F)nn1CC(=O)N1CCSCC1
-4.5%,-0.4%,.,0.3%,O=C(CCNC(=O)c1ccc([N+](=O)[O-])cc1)Nc1ccccc1N1CCCC1
1.4%,5.3%,4.3,-39.5%,c1ccc(CSc2nnc(NC3=NCCCCC3)s2)cc1

# Only part of the results is shown. The share of hits here may be higher or lower than overall.
